Screening results as filed in PubChem.
T. gondii: Toxoplasma gondii ME49Luc growth in HeLa cells, luciferase, no IFN-y, primary screen (AID 1259421); T. gondii ME49Luc in HeLa, luciferase, 72 h, no IFN-y; active compounds read low; reference of the scale and settings of repeat entries not given here; many of its hits are not listed in these tables; activity change, negative = inhibition, %; actives 9.6% (n = 6,400);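 active = activity change below -70%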;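 also: about 20 µM from a 10 mM stock diluted 500-fold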
The depositor's hits bear a star; & = joins results of further samples; ! = a repeat was not active. This is a subset, so the mix of outcomes need not match the whole.

#	smiles	T. gondii
1	CC(=O)O[C@]1(C(C)=O)CC[C@H]2[C@@H]3CCC4=CC(=O)CCC4=C3[C@@H](c3ccc(N(C)C)cc3)C[C@@]21C	-58
2	CC(=O)O[C@]1(C(C)=O)CC[C@H]2[C@@H]3C=CC4=CC(=O)CC[C@]4(C)[C@H]3CC[C@@]21C	9
3	CCn1cnc(C(=O)NC)c1C(=O)NC	4
4	COC(=O)Nc1nc2ccc(Sc3ccccc3)cc2[nH]1	-74*!
5	Cc1cc(Nc2cc(CN3CCOCC3)c3nc(C)c(Cc4ccc(Cl)cc4F)n3n2)n[nH]1	-76*
6	CCCC(C(=O)OCCN(CC)CC)(c1ccccc1)c1ccccc1	24&40
7	CON(C)C(=O)N1N=C(c2cc(F)ccc2F)S[C@@]1(CCCN)c1ccccc1	-54
8	O=C(O)c1cc(=O)c2c3nc4ccccc4oc-3cc(=O)c2[nH]1	2
9	NC1(C(=O)O)CC1	14
10	CCOC(=O)c1cnc[nH]1	7
11	FCOC(C(F)(F)F)C(F)(F)F	12
12	CNC(=O)[C@H]1O[C@@H](n2cnc3c(NCc4cccc(I)c4)nc(Cl)nc32)[C@H](O)[C@@H]1O	-26
13	COc1cc(C(C)=O)ccc1O	-2
14	CC[C@H](C)C(=O)O[C@H]1CCC=C2C=C[C@H](C)[C@H](CC[C@@H]3C[C@@H](O)CC(=O)O3)[C@H]21	4&2&-20
15	FC(F)OC(Cl)C(F)(F)F (stereo not drawn)	4

Arranged by length of the SMILES (lowest first): some entries from above.
#	smiles	T. gondii
13	COc1cc(C(C)=O)ccc1O	-2
3	CCn1cnc(C(=O)NC)c1C(=O)NC	4
8	O=C(O)c1cc(=O)c2c3nc4ccccc4oc-3cc(=O)c2[nH]1	2
14	CC[C@H](C)C(=O)O[C@H]1CCC=C2C=C[C@H](C)[C@H](CC[C@@H]3C[C@@H](O)CC(=O)O3)[C@H]21	4&2&-20

3 records drawn at random from those above:
#	smiles	T. gondii
4	COC(=O)Nc1nc2ccc(Sc3ccccc3)cc2[nH]1	-74*!
10	CCOC(=O)c1cnc[nH]1	7
14	CC[C@H](C)C(=O)O[C@H]1CCC=C2C=C[C@H](C)[C@H](CC[C@@H]3C[C@@H](O)CC(=O)O3)[C@H]21	4&2&-20

Other structures follow:
#	smiles	T. gondii
16	NCCCNCCCCNCCCN	13
17	Cc1ccc(-n2[nH]c(C)c(N=Nc3cccc(-c4cccc(C(=O)O)c4)c3O)c2=O)cc1C	-78*
18	NC(=O)c1[nH]cnc1O	5
19	O=C1c2c(O)cc(O)cc2O[C@H](c2cc(O)c(O)c(O)c2)[C@H]1O	1
20	CCOC(=O)[C@H](C)C[C@@H](Cc1ccc(-c2ccccc2)cc1)NC(=O)CCC(=O)O	5
21	C/C=C/C=C/C(=O)O	5
22	CC1(C)CCC(C)(C)c2cc(C(=O)Nc3ccc(C(=O)O)cc3)ccc21	-8
23	CCCCCCCC/C=C/CCCCCCCC(=O)NCCO	-10
24	CCOc1ccc2nc(SCCN3CCOCC3)[nH]c2c1	18
25	CNc1ncnc2c1ncn2[C@@H]1O[C@H](CO)[C@@H](O)[C@H]1O	14
26	O=C(/C=C/c1ccc2c(c1)OCO2)N1CCCCC1	90
27	CCCC[P+](CCCC)(CCCC)Cc1ccc(NC(=O)[C@H](Cc2ccc3ccccc3c2)NC(=NC2CCCCC2)NC2CCCCC2)cc1	27
28	CCCCN1CCCC1CNC(=O)c1cc(C#N)c2ccccc2c1OC (stereo not drawn)	5
29	CC1(C)C(=O)C=C[C@@]2(C)C1CC(=O)[C@]1(C)C2CC[C@@]2(C)[C@H](c3ccoc3)OC(=O)[C@H]3O[C@]321 (stereo partly drawn)	30
30	CCc1c(C(=O)NCCc2ccc(N3CCCCC3)cc2)[nH]c2ccc(Cl)cc12	-8

(continued)
#	smiles	T. gondii
31	C[C@](N)(Cc1ccc(O)cc1)C(=O)O	3
32	NC(=O)c1ncn([C@@H]2O[C@H](CO)[C@@H](O)[C@H]2O)c1N	26
33	CN1C(=O)CC(c2ccccc2)C1=O (stereo not drawn)	4
34	COc1cc2c(cc1O)CC[C@@H]1[C@@H]2CC[C@]2(C)[C@@H](O)CC[C@@H]12	-45
35	CCCCCC(O)c1cccc(OCc2ccc3ccccc3n2)c1 (stereo not drawn)	10
36	Fc1ccc2nc(CCC#Cc3ccccn3)cn2c1	1
37	CCC1NC(=O)c2cc(S(N)(=O)=O)c(Cl)cc2N1 (stereo not drawn)	9
38	CC(=O)OCC(=O)[C@H]1CCC2C3CC=C4C[C@@H](O)CC[C@]4(C)C3CC[C@@]21C (stereo partly drawn)	8
39	C[C@]1(Cn2ccnn2)C(C(=O)O)N2C(=O)CC2S1(=O)=O (stereo partly drawn)	0
40	CCCOc1ccc(Br)cc1-c1cc(-c2ccc(Cl)cc2)[nH]c1-c1ccncc1	-8
41	CSCC1CN(/N=C/c2ccc([N+](=O)[O-])o2)C(=O)O1 (stereo not drawn)	3
42	O=C1C(c2c(O)[nH]c3ccccc23)=Nc2ccccc21	-5
43	COC(=O)C1=C(C)NC(C)=C([N+](=O)[O-])C1c1ccccc1C(F)(F)F (stereo not drawn)	-7&1
44	O=C(NCCN1CCCCC1)c1ccc(I)cc1	10&18
45	O=C1c2c(O)cc(O)cc2O[C@H](c2ccc(O)c(O)c2)[C@H]1O	6

The list continues:
#	smiles	T. gondii
46	C=C1C(N)CC2CC1C2(C)C (stereo not drawn)	4
47	CN(CC[C@@H](Oc1ccc(-c2ccccc2)cc1)c1ccc(F)cc1)CC(=O)O	9&9
48	CC[N+](CC)(CC)CCC(O)(c1ccccc1)C1CCCCC1 (stereo not drawn)	-55
49	O=C(O)c1cn(-c2ccc(F)cc2)c2cc(Cl)c(F)cc2c1=O	17
50	CCc1c(O)cc(O)c(C(=O)c2ccc(OCCN3CCOCC3)c(OC)c2)c1CC(=O)N(CCOC)CCOC	19
51	COc1cc(NC(C)CCCN)c2ncccc2c1 (stereo not drawn)	31&33
52	CC(C)c1ccc(C(=O)c2cccs2)c(SCCCCCCCCN(C)C)n1	-8
53	Cc1ccc(C(=O)c2cc(O)c(O)c([N+](=O)[O-])c2)cc1	-80*!
54	CC(=O)[C@@]1(O)CCC2C3CCC4=CC(=O)CC[C@]4(C)C3CC[C@@]21C (stereo partly drawn)	3&7
55	COc1ccc(NC(=O)c2cc(OCCCN(C)C)nn2Cc2ccccc2)cc1	8&3
56	C[C@@H](NC(=O)/C(C#N)=C\c1ccc(O)c(O)c1)c1ccccc1	-3
57	CC(=O)OCC(=O)[C@@]1(OC(C)=O)[C@@H](C)CC2C3C[C@H](F)C4=CC(=O)C=C[C@]4(C)[C@@]3(F)[C@@H](O)C[C@@]21C (stereo partly drawn)	-4&-5
58	O=c1c(O)c(-c2ccccc2)oc2cc(O)cc(O)c12	69
59	C=CC(=O)Nc1cccc(Sc2nc(Nc3ccc(N4CCN(C)CC4)cc3)ncc2Cl)c1	-59
60	Cc1nc(-c2cn3c(n2)-c2ccc(-c4cnn(C(C)(C)C(N)=O)c4)cc2OCC3)n(C(C)C)n1	-4

(more compounds)
#	smiles	T. gondii
61	CN(C)N=Nc1ccc(C(=O)O)cc1	17
62	Cc1ccc(-c2nn(C(C)(C)C)c3ncnc(N)c23)cc1	-83*
63	COc1ccc2c(=O)c(CC(=O)O)coc2c1	5
64	C#C[C@]1(O)CCC2C3CCc4cc(O)ccc4C3CC[C@@]21C (stereo partly drawn)	-81*
65	O=C1NC(=O)[C@@H](c2cn3c4c(cccc24)CCC3)[C@@H]1c1c[nH]c2ccccc12	-54
66	CC1OC(OCC2OC(Oc3c(-c4ccc(O)c(O)c4)oc4cc(O)cc(O)c4c3=O)C(O)C(O)C2O)C(O)C(O)C1O (stereo not drawn)	-10
67	Cc1cccc(C#Cc2ccccc2)n1	194
68	CNCc1ccccc1	12
69	CC[C@@]1(C2O[C@@H](C3O[C@@](O)(CO)[C@H](C)C[C@@H]3C)C[C@@H]2C)CC[C@H]([C@]2(C)CC[C@]3(C[C@H](O)[C@@H](C)[C@@H]([C@@H](C)[C@@H](OC)[C@H](C)C(=O)O)O3)O2)O1 (stereo partly drawn)	-80*
70	CC(C)OC(=O)CCC/C=C\C[C@@H]1[C@@H](/C=C/[C@@H](O)COc2cccc(C(F)(F)F)c2)[C@H](O)C[C@@H]1O	15
71	COC(=O)[C@H](c1ccccc1Cl)N1CCc2sccc2C1	16&18
72	CCOC(=O)C1CSC(Cc2ccc(OCc3ccc([N+](=O)[O-])cc3)cc2)N1 (stereo not drawn)	93&15
73	CCCCc1oc2ccc(NS(C)(=O)=O)cc2c1C(=O)c1ccc(OCCCN(CCCC)CCCC)cc1	-84*
74	CO/N=C(\C(=O)N[C@@H]1C(=O)N2C(C(=O)O)=C(CSC(=O)c3ccco3)CS[C@H]12)c1csc(N)n1	-30&18
75	C[N+](C)(C)CCOP(=O)(O)OC[C@H](O)CO	8

Brought forward from above: 2 entries, then new ones.
#	smiles	T. gondii
74	CO/N=C(\C(=O)N[C@@H]1C(=O)N2C(C(=O)O)=C(CSC(=O)c3ccco3)CS[C@H]12)c1csc(N)n1	-30&18
75	C[N+](C)(C)CCOP(=O)(O)OC[C@H](O)CO	8
76	CC(C)(C)NCC(O)COc1cccc2[nH]c(=O)[nH]c12 (stereo not drawn)	-2&27
77	Nc1ccc(S(=O)(=O)Nc2ccnn2-c2ccccc2)cc1	-23&-6
78	Cc1sc(N)c(C(=O)c2cccc(C(F)(F)F)c2)c1C	2
79	CC1CNCCN1S(=O)(=O)c1cccc2cnccc12 (stereo not drawn)	0
80	C=CCN1CCCC1CNC(=O)c1cc2[nH]nnc2cc1OC (stereo not drawn)	4
81	CC(=O)N=c1sc(S(N)(=O)=O)nn1C	4&0
82	CSc1nc2cc(Oc3cccc(Cl)c3Cl)c(Cl)cc2[nH]1	18&18
83	CCOc1ccccc1OCCN[C@H](C)Cc1ccc(OC)c(S(N)(=O)=O)c1	7
84	CC(C)c1c(O)ccc2c1CCC1C(C)(C)CCC[C@]21C (stereo partly drawn)	25
85	COC(=O)/C=C/c1cccc(N(Cc2ccc(-c3ccc(N(C)C)cc3)cc2)C(=O)C2CCCCC2)c1	-8&15
86	C[C@H](O)C(=O)Nc1c(I)c(C(=O)NC(CO)CO)c(I)c(C(=O)NC(CO)CO)c1I	2
87	O=C(O)CCC/C=C/CC1COC(C(F)(F)F)OC1c1ccccc1O (stereo not drawn)	0
88	OC[C@H]1O[C@@H](O[C@@H]2[C@@H](CO)O[C@](O)(CO)[C@H]2O)[C@H](O)[C@@H](O)[C@H]1O	3
89	CC1CCN=C(N)S1 (stereo not drawn)	3&13
90	CCOC(=O)COc1ccc2c(=O)cc(-c3ccccc3)oc2c1	-2&10

Carrying on:
#	smiles	T. gondii
91	CC(C)C[C@H](NC(=O)[C@@H](O)[C@H](N)Cc1ccccc1)C(=O)O	15&-1
92	COc1cc(O)c2c(=O)c(OC)c(-c3ccc(OC)c(OC)c3)oc2c1	3
93	CCc1ccc2c(-c3cccc(Cl)c3)nc(=O)n(CC)c2n1	18&3
94	Cc1nn(C)c2nc(NNC(=O)Nc3cc(Cl)nc(Cl)c3)cc(C(C)C)c12	-67
95	CN1CCC[C@@H]1Cc1c[nH]c2ccc(CCS(=O)(=O)c3ccccc3)cc12	23
96	CCCCCCCCCCCCCC[C@@H](O)[C@@H](O)[C@@H](N)CO	25
97	CC(C)(C)OC(=O)N[C@H]1CCCCC/C=C\[C@@H]2C[C@@]2(C(=O)NS(=O)(=O)C2CC2)NC(=O)[C@@H]2C[C@@H](OC(=O)N3Cc4cccc(F)c4C3)CN2C1=O	20
98	CCCCCCCCCCCCCCSCC(=O)O	4
99	O=C(/C=C/c1cccc(S(=O)(=O)Nc2ccccc2)c1)NO	-81*
100	O=c1[nH]ccc2c(O)cccc12	12
101	Nc1ccc(C(=O)O)cc1	6
102	N[C@@H](CS(=O)O)C(=O)O	-8
103	CCCC(C)NC(=O)c1ccc(Cl)c(Cl)c1 (stereo not drawn)	6
104	CNC(=O)[C@H](Cc1ccccc1)NC(=O)[C@H](CC(C)C)[C@H](CSc1cccs1)C(=O)NO	11&-1
105	NS(=O)(=O)c1cccc2c1c([N+](=O)[O-])cc1[nH]c(=O)c(=O)[nH]c12	17&2&4

(listing goes on)
#	smiles	T. gondii
106	CC(C)[C@H](C(=O)Nc1ccc(C(=O)NO)cc1)c1ccccc1	-79*
107	CC(C)CCN1c2nc(Nc3cc(F)c(O)c(F)c3)ncc2N(C)C(=O)C1C (stereo not drawn)	-84*
108	COC(=O)N[C@H](C(=O)N1CC2(CC2)C[C@H]1c1ncc(-c2ccc3c(c2)C(F)(F)c2cc(-c4ccc5nc([C@@H]6[C@H]7CC[C@H](C7)N6C(=O)[C@@H](NC(=O)OC)C(C)C)[nH]c5c4)ccc2-3)[nH]1)C(C)C	-12
109	O=c1[nH]c2ccccc2c(=O)n1CCCN1CCN(c2ccccc2)CC1	12
110	O=C(OCCN1CCOCC1)C1(c2ccccc2)CCCCC1	12&18
111	CCCc1c(OCC(O)COc2ccc3c(=O)cc(C(=O)O)oc3c2CCC)ccc(C(C)=O)c1O (stereo not drawn)	-5&10
112	CCCOc1cc(N)ccc1C(=O)OCCN(CC)CC	21
113	N[C@@H]1CCCCN(c2c(F)cc3c(=O)c(C(=O)O)cn(C4CC4)c3c2Cl)C1	5
114	Cc1[nH]c(=O)c(C#N)cc1-c1ccc2nccn2c1	1&24
115	C1CCC(N=C(NC23CC4CC(CC(C4)C2)C3)N2CCOCC2)CC1	16
116	O=c1c(-c2ccc(O)cc2)coc2cc(O)cc(O)c12	44&161
117	CC(O)(P(=O)(O)O)P(=O)(O)O	14
118	COc1ccc2ccc(=O)oc2c1CC=C(C)C	7
119	CCCCCCCCc1ccc(-c2ccc(C(=O)O)cc2)cc1	18
120	C=CCn1c(=O)c2cnc(Nc3ccc(N4CCN(C)CC4)cc3)nc2n1-c1cccc(C(C)(C)O)n1	-82*

Later entries
#	smiles	T. gondii
121	CCCCCCCCCCCCc1ccc(S(=O)(=O)Nc2nncs2)cc1	6
122	O=C(c1ccc(OCCCc2cnc[nH]2)cc1)C1CC1	31
123	O=C1[C@@H](Cc2ccc(O)cc2)N2C(=O)CCN(C(=O)NCc3ccccc3)[C@H]2CN1Cc1cccc2ccccc12	2
124	O=C(c1cncc(Br)c1)N1CCC(N2CCCC2)CC1	16
